Compound activity (PubChem)
E coli growth: inhibitors of Escherichia coli growth; OD600 absorbance (concentration not given with the values); 330,000 compounds, 0.21% hits; OD600, 23 h; active compounds read low;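 active = OD600 absorbance below the run mean of sample wells minus 3.6 SD, in any replicate, cut at about 0.56 in these data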;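 note: stock transfer was 300 nL into about 60 µL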
UCH37 inh: blocks the human deubiquitinase UCH37; purified proteasome/UCH37, Ub-AMC cleavage fluorescence; inhibition, % (no concentration beside the values); 330,000 compounds, 0.33% hits;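 active = mean of two replicates above 20%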;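 note: 0% = compound-free wells with enzyme and 100% = wells lacking proteasome; stock transfer was 100 nL into about 20 µL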
Target sequence (Q9Y5K5 whole entry, looked up): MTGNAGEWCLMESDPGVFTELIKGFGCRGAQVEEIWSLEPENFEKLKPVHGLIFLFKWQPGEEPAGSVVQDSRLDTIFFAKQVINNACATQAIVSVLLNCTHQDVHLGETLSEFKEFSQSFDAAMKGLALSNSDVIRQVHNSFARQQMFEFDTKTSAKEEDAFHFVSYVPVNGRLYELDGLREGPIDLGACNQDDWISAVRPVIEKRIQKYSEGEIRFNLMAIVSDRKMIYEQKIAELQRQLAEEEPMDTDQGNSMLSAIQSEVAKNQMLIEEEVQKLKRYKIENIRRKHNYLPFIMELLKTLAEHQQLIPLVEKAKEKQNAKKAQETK
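Schedule: 30 min plus 25 min, room temperature / Material: human UCH37 within purified proteasomes / Technique: AMC fluorescence intensity at 355/460 nm / Buffer or medium: pH 7.4 Tris-HCl (50 mM) with ovalbumin, ATP-MgCl2, DTT / Controls: wells without proteasome as full block, compound-free enzyme plus substrate as uninhibited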
T cruzi repl: T. cruzi replication inhibition; T. cruzi beta-gal in NIH3T3, luminescence, 90 h; inhibition, % (no concentration beside the values); 300,000 compounds, 1.4% hits; AID 1885;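 active = mean inhibition across valid replicates above about 55%, limit read from the data; inconclusive = mean below that limit but half or more replicates reach it; inactive = mean below it, under half of replicates reach it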;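 note: signal also drops with host cell toxicity which is not excluded here; 0% = plate median of DMSO wells and 100% = zero luminescence signal; higher percent means less beta-gal luminescence so fewer parasites; stock transfer was 50 nL into about 50 µL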
Bfl-1 A1 inh: inhibitors of the anti-apoptotic protein A1, read as caspase activation; caspase activation, % (no concentration beside the values); MEF A1-2A-BIM cells, Caspase-Glo 3/7 luminescence, 3 h; percent of clofoctol response, vehicle zero; AID 2462; 330,000 compounds, 0.066% hits;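 active = over half of replicate activation scores above 10%, or exactly half above 10 with the replicate mean above 10; inconclusive = replicate mean below 10 yet half the replicates above 10; inactive = over half of replicates below 10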;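 note: wells of about 30 µL received 50 nL stock; many hits fall short of the cut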
MLL AF4-AF9 inh: inhibitors of human MLL-AF4/AF9 interaction; inhibition, % at 10 µM; 350,000 compounds, 0.47% hits; AID 651704; AlphaScreen, biotin-AF4 peptide binding to FLAG-AF9;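 active = every replicate reaching a set inhibition limit, whatever the replicate mean, cut at about 25% in these data; inconclusive = mean inhibition reaches that limit but some replicates miss it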;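 note: 0% = plate neutral control median and 100% = total signal loss; the record names both 10 and 1 µM as test concentration; the first replicate is given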
Target sequence (P42568 whole entry, looked up): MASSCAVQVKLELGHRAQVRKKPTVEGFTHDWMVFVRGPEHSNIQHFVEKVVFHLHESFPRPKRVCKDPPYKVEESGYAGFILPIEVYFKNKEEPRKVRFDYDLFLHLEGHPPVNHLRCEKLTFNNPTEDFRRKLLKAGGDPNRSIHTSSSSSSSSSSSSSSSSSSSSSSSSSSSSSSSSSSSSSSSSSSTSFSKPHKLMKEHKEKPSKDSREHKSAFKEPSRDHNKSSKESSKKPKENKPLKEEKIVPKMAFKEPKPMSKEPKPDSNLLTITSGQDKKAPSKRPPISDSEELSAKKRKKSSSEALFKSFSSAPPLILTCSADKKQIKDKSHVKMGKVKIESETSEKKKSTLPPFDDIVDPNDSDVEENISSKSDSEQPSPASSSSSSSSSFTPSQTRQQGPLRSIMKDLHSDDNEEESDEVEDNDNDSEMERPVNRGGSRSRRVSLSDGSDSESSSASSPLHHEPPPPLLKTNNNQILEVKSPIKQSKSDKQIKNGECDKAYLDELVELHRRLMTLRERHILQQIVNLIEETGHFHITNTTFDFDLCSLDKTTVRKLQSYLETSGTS
Beta cell apopt: blocks beta cell apoptosis; protection from apoptosis, % (concentration not given with the values); 300,000 compounds, 0.8% hits; INS-1E cytokine-induced death, ATP luminescence, 48 h; percent of positive-control rescue, neutral wells zero; AID 435005;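 active = all replicates at 75% or more, or half of them and the mean; inconclusive = half reach 75% but not the mean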;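 note: 0% = cytokine-treated negative control wells and 100% = positive control rescue; higher means more ATP so stronger rescue from cytokine killing; wells of about 40 µL received 100 nL stock; the first replicate is given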
FGF22 binding: FGF22 (human) thermal shift binding | 340,000 compounds, 1.5% hits | AID 651658 | Q9HCT0 | calls only at 9.99 µM | recombinant FGF22 thermal shift, SYPRO orange fluorescence; percent of sucrose octasulfate shift, DMSO zero;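 active = melting point raised past a set limit in the mean and every replicate; inconclusive = no clear call; three in four hits are not shown here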
Target sequence (Q9HCT0 whole entry, looked up): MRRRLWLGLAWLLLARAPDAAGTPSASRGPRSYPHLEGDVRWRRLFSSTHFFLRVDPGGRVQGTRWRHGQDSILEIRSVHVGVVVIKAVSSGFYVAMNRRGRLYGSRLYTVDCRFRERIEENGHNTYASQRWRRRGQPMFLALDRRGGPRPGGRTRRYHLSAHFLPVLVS
rRNA inh HTS: inhibitors of bacterial rRNA selective over humanized ribosomes | GFP signal change (wild-type ribosome), % (test concentration not listed) | 350,000 compounds, 1.6% hits | E. coli WT GFP vs humanized-ribosome RFP mutants, fluorescence, 24 h; active compounds read low; DMSO median 0, no signal -100;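 active = significant combined selectivity score with lowered wild-type GFP, culture density cut under 30%, mutant RFP and density less affected; inactive = any of these conditions unmet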; note: one replicate is shown; some compounds called inactive have numbers as strong as hits
rRNA inh HTS OD600: also measured in rRNA inh HTS; calls as there; OD600 change, %; measured here: OD600 growth;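 optical density of the mix in the first replicate; 0 = DMSO median and -100 = no signal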
rRNA inh HTS RFP: recorded beside rRNA inh HTS, whose call it bears; RFP signal change, %; measured here: RFP humanized mutant strains;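 first replicate; 0 = DMSO median and -100 = no signal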
* = called active by the depositor; i = inactive; ? = inconclusive; . = not tested or not shown. The list is partial; the hit share may differ from the screen's.

SMILES | E coli growth | UCH37 inh | T cruzi repl | Bfl-1 A1 inh | MLL AF4-AF9 inh | Beta cell apopt | FGF22 binding | rRNA inh HTS | rRNA inh HTS OD600 | rRNA inh HTS RFP
CC(CCc1ccccc1)NC(=O)Cc1ccc(Br)cc1 (centres undefined) | 0.631 | 0.9 | 22.3 | -0.3 | 2.1 | 0.6 | i | -12.8 | -18.4 | -17.6
CCOc1ccc(NC(=O)N2CCN(c3nc4ccccc4s3)CC2)cc1 | 0.769 | -2.9 | 6.7 | -1.1 | . | 10.3 | . | . | . | .
CCOc1ccc2nc(SCC(=O)c3ccc(O)cc3O)sc2c1 | 0.673 | 2.8 | -7.6 | 0.0 | 1.0 | -14.7 | i | 4.5 | 0.0 | -0.2
Cc1cc(NC(=O)c2ccccc2)nc(C)n1 | 0.66 | 2.5 | -0.8 | -3.5 | -1.2 | 0.3 | i | 8.3 | 12.7 | -0.6
CSCCC(NC(=O)OCc1ccccc1)C(=O)NCc1cccnc1 (centres undefined) | 0.68 | 2.3 | -13.5 | 1.3 | -0.2 | 0.0 | i | 3.4 | 5.2 | 0.7
COc1ccc(-c2c(C)oc3cc(O)cc(O)c3c2=O)cc1OC | 0.756 | 4.0 | 2.5 | -0.1 | ? | 2.9 | i | -15.6 | -16.1 | -0.2
CCCN(CCC)C1Sc2ccc(C(=O)OC)cc2NC1=O (centres undefined) | 0.691 | 7.6 | -14.4 | 0.9 | . | 0.1 | . | . | . | .
COC(=O)CSc1nnc(-c2c[nH]c3ccccc23)o1 | 0.677 | 1.9 | -9.9 | -2.5 | -5.5 | . | i | 2.1 | 2.0 | -4.0
Oc1ccccc1-c1cc(-c2cccc(F)c2)n[nH]1 | 0.552 | 4.3 | -3.2 | -4.8 | . | 7.0 | . | . | . | .
COC(=O)c1sccc1NC(=O)Nc1cccc(C)c1 | 0.672 | -0.4 | -14.3 | -8.9 | -1.5 | -10.5 | i | -13.1 | -3.4 | 2.2
Cc1nnc(SC(C)C(=O)NC2CCCCC2C)n1N (centres undefined) | 0.67 | 1.7 | -3.8 | 0.0 | -44.2 | -2.4 | i | 0.1 | -2.7 | -2.5
Cc1nnsc1C(=O)N1CCCC(C(=O)c2ccc(C(F)(F)F)cc2)C1 (centres undefined) | 0.708 | 4.9 | 0.6 | 0.3 | -5.9 | 1.3 | i | 1.1 | 3.4 | -1.0
O=C(C[n+]1ccccc1)N/N=C/c1cc(Br)ccc1O | . | . | -7.4 | -1.9 | 11.2 | -1.0 | i | -1.3 | -1.3 | 2.2
CC(C)(C)c1ccc(COc2ccsc2C(=O)O)cc1 | 0.714 | 1.8 | 7.7 | 0.3 | -5.1 | -13.1 | i | 3.7 | 1.0 | -3.0
COc1ccc(NS(=O)(=O)c2ccc3c(c2)CCCN3C(C)=O)cc1 | 0.689 | 1.0 | -10.6 | -0.1 | -24.5 | -4.0 | i | 5.6 | -2.6 | -0.1
COc1ccc(OCCSc2nc3ccccc3n2CCC(=O)O)cc1 | 0.667 | 3.4 | -10.3 | -0.2 | -0.5 | . | i | -19.1 | -14.6 | -2.1
Cc1cc2cc(CNC(=S)Nc3ccc(OC(F)(F)F)cc3)ccc2n1C | 0.77 | 3.4 | -12.7 | -0.5 | -3.5 | . | i | -16.9 | 4.5 | 18.1
O=C(COc1ccc(Cl)cc1)N(Cc1cccs1)C1CCS(=O)(=O)C1 (centres undefined) | 0.708 | 5.1 | 40.9 | . | -5.2 | -1.8 | i | -6.5 | -14.0 | -5.2
COc1ccc(C(=O)N2CCc3cc(OC)c(OC)cc3C2)cc1OC | 0.696 | 2.0 | -3.4 | 1.7 | . | -8.0 | . | . | . | .
COc1ccc(CC(=O)Nc2ccc(S(=O)(=O)Nc3nccc(C)n3)cc2)cc1 | 0.705 | 1.4 | -19.3 | 0.6 | . | -6.5 | . | 14.2 | 9.7 | 3.7
Cc1[nH]c2ccccc2c1C(=O)C(C)OC(=O)c1ccc(NC(=O)CC#N)cc1 (centres undefined) | 0.686 | 4.5 | 18.0 | 0.0 | -0.6 | 12.6 | i | -2.8 | -13.9 | 28.2
CCOc1ccc(CN(C)C(=O)CCNC(=O)c2ccco2)cc1 | 0.656 | 3.4 | . | -0.3 | 0.8 | -7.1 | i | 8.3 | 6.7 | 1.8
Cc1nn(CC(C)C)c(Cl)c1C(=O)N(c1ccc(Cl)cc1F)S(C)(=O)=O | 0.662 | 0.9 | -5.2 | -0.3 | 0.3 | -5.1 | i | -35.3 | -46.3 | -7.3
CC(=O)c1c(COC(=O)c2cccc(C)c2)nc2ccccc2[n+]1[O-] | 0.62 | 5.6 | -16.3 | 0.4 | 4.8 | -7.8 | i | -8.4 | 3.4 | -0.4
Fc1ccccc1CSc1ncnc2c1oc1ccccc12 | 0.697 | 2.2 | 3.0 | -0.1 | . | 4.9 | . | . | . | .
C=CCn1c(SCC(=O)N2CCc3ccccc3C2)nc2ccccc2c1=O | 0.703 | 1.2 | 9.4 | -0.1 | . | -5.2 | . | . | . | .
CCOc1cc(C2NC(=O)CCC2[N+](=O)[O-])cc(Br)c1OC (centres undefined) | 0.679 | 1.2 | -5.9 | 0.0 | -3.7 | -4.0 | i | 6.0 | 14.0 | -2.2
O=C(NCCCN1CCCC1=O)c1cc(=O)c2ccccc2o1 | 0.758 | -0.1 | -11.7 | -0.5 | . | 1.6 | . | . | . | .
Cc1cccc2c(CC(=O)Nc3ccccc3)noc12 | 0.692 | 1.7 | 5.9 | -0.4 | -0.1 | -1.8 | i | 10.6 | 4.0 | 0.9
CCCOc1ccc(-c2nnc(-c3cccs3)o2)cc1 | 0.758 | -23.2 | -7.6 | -11.0 | . | -2.7 | . | . | . | .
O=C(COC(=O)CCc1nc2ccccc2n1-c1ccccc1)Nc1ccc(N2CCCCC2)cc1 | 0.641 | -2.5 | -5.4 | 1.1 | . | -1.8 | . | . | . | .
O=C(CN1C(=O)S/C(=C\c2ccccc2)C1=O)Nc1cc([N+](=O)[O-])ccc1O | 0.656 | 10.8 | 11.0 | 2.0 | 2.9 | 1.5 | i | -20.6 | -8.4 | -9.6
Cc1cc(-c2nc(C)c(C(=O)NNC(=O)NC(C)C)s2)no1 | 0.661 | 6.9 | -4.5 | 0.0 | -1.9 | 1.6 | i | 1.8 | 4.2 | -1.5
Cc1c(-c2ccccc2)nc2ccccc2c1C(=O)Nc1ccncc1 | 0.673 | 2.1 | -9.9 | 0.1 | -1.8 | 5.9 | i | -14.7 | -20.0 | -6.5
CCc1cc(-c2n[nH]c(C)c2Oc2ccc(C(C)C)cc2)c(O)cc1O | 0.739 | 2.5 | 38.2 | -0.8 | . | -3.1 | . | . | . | .
CCCS(=O)(=O)N1CCCC(C(=O)N2CCN(c3ccccn3)CC2)C1 (centres undefined) | 0.69 | -0.4 | -9.9 | 0.4 | . | -3.5 | . | . | . | .
O=C(COC(=O)c1ccc(S(=O)(=O)N2CCCC2)cc1)Nc1cccc(Cl)c1 | 0.678 | 4.1 | . | 0.0 | -11.4 | -2.4 | i | 6.4 | 13.7 | -1.2
CCOc1ccccc1C(=O)Nc1nn[nH]n1 | 0.691 | 1.5 | 1.6 | 0.7 | -2.0 | 3.1 | i | -1.6 | 12.6 | -2.7
COC(=O)c1c(N)c(C#N)c2n1CCCCC2 | 0.661 | 6.0 | -4.3 | -0.1 | . | 1.8 | . | . | . | .
CC1(C)Cc2c(sc3ncn4nc(CCC(=O)O)c(=O)nc4c23)CO1 | 0.724 | -18.7 | -13.2 | -0.5 | . | 1.8 | . | . | . | .
O=C1N[C@@H](c2ccccc2)COC(=O)[C@H](Cc2ccc(F)cc2)CC/C=C/C[C@H]1CC(=O)N(CCO)Cc1ccccc1 | 0.692 | -1.4 | . | 0.3 | 1.5 | -6.4 | i | 4.8 | -13.7 | 1.2
COc1ccccc1C(=O)Nc1ccc(S(=O)(=O)N2CCCCC2)cc1 | 0.704 | 2.7 | 7.4 | 0.1 | 1.3 | . | i | -13.7 | -9.7 | 6.2
O=C1CN(C(=O)/C=C/c2ccccc2)CCN1 | 0.646 | 1.5 | -9.8 | 0.4 | -3.1 | 1.0 | i | 9.9 | 8.4 | 0.8
NS(=O)(=O)c1ccc(CNC(=O)c2ccc(NS(=O)(=O)c3ccc4[nH]c(=O)[nH]c4c3)cc2)cc1 | 0.611 | 0.8 | -10.9 | -0.3 | 0.6 | -0.2 | i | 6.9 | 5.5 | -1.9
C/C(=C\C(=O)c1ccc(C)cc1)Nc1cccc(O)c1 | 0.656 | 3.3 | -6.6 | -5.3 | . | -11.1 | . | . | . | .
CCCCCc1nc2ccccc2c(=O)n1N | 0.743 | 3.0 | -0.1 | -0.5 | . | -2.0 | . | . | . | .
CCOC(=O)CN(C(=O)COc1nc(-c2ccccc2)cc(C)c1C#N)c1ccccc1C | 0.701 | -0.5 | 29.5 | 0.0 | -3.2 | -3.1 | i | 22.9 | 8.8 | 0.3
CCN(CC)S(=O)(=O)N1CCN(S(=O)(=O)N2CCOCC2)CC1 | 0.71 | -2.9 | -11.6 | -0.1 | 0.3 | . | . | 12.7 | 10.2 | -0.3
O=C(CCc1nnc2ccc(NCc3ccco3)nn12)N1CCN(c2ccccc2)CC1 | 0.633 | 0.5 | 1.1 | 0.8 | 3.9 | . | i | -3.1 | -20.6 | -1.5
COCCN1C=C2C(=O)C(C)(OC(=O)c3cccs3)C(=O)C=C2C=C1CCCC(=O)OC (centres undefined) | 0.695 | 3.0 | 15.8 | 1.1 | -2.7 | -1.1 | i | 0.9 | -2.2 | 12.1
CCCCOc1ccc(CSCCN)cc1Cl | 0.534 | 2.1 | 10.6 | -0.5 | 7.2 | -1.8 | i | -17.3 | -15.1 | 0.1
CC(C)CCNC(=O)C(c1ccco1)N(Cc1ccc(F)cc1)C(=O)c1snc(C(N)=O)c1N (centres undefined) | 0.677 | -22.7 | 45.2 | 1.3 | . | -3.3 | . | . | . | .

Entries shown so far that contain a furan ring, fused or not, in the order listed:
SMILES | E coli growth | UCH37 inh | T cruzi repl | Bfl-1 A1 inh | MLL AF4-AF9 inh | Beta cell apopt | FGF22 binding | rRNA inh HTS | rRNA inh HTS OD600 | rRNA inh HTS RFP
CCOc1ccc(CN(C)C(=O)CCNC(=O)c2ccco2)cc1 | 0.656 | 3.4 | . | -0.3 | 0.8 | -7.1 | i | 8.3 | 6.7 | 1.8
Fc1ccccc1CSc1ncnc2c1oc1ccccc12 | 0.697 | 2.2 | 3.0 | -0.1 | . | 4.9 | . | . | . | .
O=C(CCc1nnc2ccc(NCc3ccco3)nn12)N1CCN(c2ccccc2)CC1 | 0.633 | 0.5 | 1.1 | 0.8 | 3.9 | . | i | -3.1 | -20.6 | -1.5
CC(C)CCNC(=O)C(c1ccco1)N(Cc1ccc(F)cc1)C(=O)c1snc(C(N)=O)c1N (centres undefined) | 0.677 | -22.7 | 45.2 | 1.3 | . | -3.3 | . | . | . | .
